# Bead autofluor – flagged as autofluorescent in microsphere protease counterscreen. compound autofluorescence counterscreen, microsphere flow cytometry; hits give high values. fluorescence intensity (no concentration beside the values). 360,000 compounds, 3.1% hits. AID 624483;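 active = at least 3 SD above the mean of all compounds, about 16000 in these data; inconclusive = too few beads counted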;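 note: 100 nL of 1 mM stock went into each well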
# PrP 5UTR inh – inhibition of PrP 5' UTR reporter expression | AID 488862, 2010 | inhibition, % (test concentration not listed) | 340,000 compounds, 0.35% hits | cell-based PrP 5' UTR mRNA reporter, plate reader;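 active = every replicate at 50% or more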;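 note: 0 = median of the neutral control wells; tested in H4 reporter cells; numbers are from one replicate; inactives centre near -14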
# RN4220 kill – growth inhibition of S. aureus RN4220, primary screen, OD600. 330,000 compounds, 0.33% hits. inhibition, % (test concentration not listed). 16 h;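 active = z-score of -3 or lower and OD600 up to 0.18 on both plates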;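 note: plate controls were untreated cells for no effect and reference antibiotic for full effect; stock transfer was 100 nL into about 80 µL; one replicate is shown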
# Mtb hypoxia inh – PubChem AID 1159583. fluorescence inhibition, % (test concentration not listed). 300,000 compounds, 0.1% hits. M. tuberculosis hypoxia-regulated fluorescent reporter, fluorescence;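 active = 35 to 45% if threefold the growth effect, above 45% if 1.5-fold the growth effect; inactive = the rest, general growth blockers included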;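 note: wells of about 50 µL received 100 nL stock; 0% = vehicle wells and 100% = reference inhibitor wells; whole bacteria with a GFP reporter of the hypoxia response; strong numbers were not always called active; many hits fall short of the cut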
# ugtP null kill – growth inhibition of ugtP-null S. aureus, primary screen, RN4220 ugtP deletion, OD600; growth inhibition, % (test concentration not listed); 16 h; some inactives read as strong as hits; 330,000 compounds, 0.54% hits;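 active = z-score under -3 and OD600 up to 0.15 on both plates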;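 note: plate controls were untreated wells for no effect and antibiotic for full effect; wells of about 80 µL received 100 nL stock; the first replicate is given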
# BJeLR lethal – MLPCN primary cell-based screen for lethality selective to Ras in HRASV12 cells | BJeLR (HRASV12) viability, CellTiter-Glo ATP luminescence, 48 h; reference of the scale not given here | 300,000 compounds, 0.17% hits | inhibition, % (concentration not given with the values);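 active = replicate mean above 50%; inconclusive = above 50% but judged a plate artefact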;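 note: 50 nL library stock added to about 25 µL; numbers are from one replicate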
# Mtb hypoxia inh growth – further read-out of Mtb hypoxia inh, marked with its call; growth inhibition, %; measured here: M. tuberculosis growth (absorbance);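 0% = vehicle and 100% = reference antibiotic; read after six days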
# Active calls of the source: *; ? = inconclusive; . = no result given.
SMILES,Bead autofluor,PrP 5UTR inh,RN4220 kill,Mtb hypoxia inh,Mtb hypoxia inh growth,ugtP null kill,BJeLR lethal
COc1ccc(C)cc1NC(=O)c1ccc(CN2CCN(c3ccccc3)CC2)cc1,2379,-19,-1.7,4,3,5,0
CC(C)(C)N(Cc1ccccc1)C(=O)COC(=O)CN1C(=O)C2CC=CCC2C1=O (configuration not stated),6970,-28,5.7,7,5,11,1
COc1ccccc1C=NNC(=O)c1ccc(C)nc1,.,.,4.9,1,2,12,.
CCOC(=O)COc1nc(Nc2ccccc2C)nc(N(C)C)n1,4430,-8,3.7,3,9,-7,5
O=S(=O)(c1cccs1)N1CCN(CCOc2ccccc2)CC1,.,-17,-0.3,7,-4,12,.
CC(NC(=O)CN1C(=O)NC2(CCCCCCC2)C1=O)c1ccccc1 (configuration not stated),4079,3,0.3,-6,-6,3,.
O=C(NN=C1CN2CCC1CC2)c1cccc(O)c1,.,.,1.9,9,8,4,.
COC(=O)c1ccc(COc2ccc(/C=N/N3CCN(C)CC3)cc2)cc1,?,-60,.,.,.,.,0
CC12CCC(C/C1=N/OC(=O)c1cccc([N+](=O)[O-])c1)C2(C)C (configuration not stated),4878,-17,.,.,.,.,-1
COc1ccc(NS(=O)(=O)c2ccc(NS(=O)(=O)c3ccc(C)cc3)cc2)nn1,2796,-6,6.1,.,.,-8,5
Cc1ccc(F)c(NC(=O)c2ccc(Cn3cc(Cl)cn3)cc2)c1,2063,-3,-2.5,2,8,14,3
COc1ccc(C(=O)C[n+]2ccc3c(c2)nc(-c2cc(OC)c(OC)cc2OC)n3C)cc1,5801,-14,6.3,3,6,3,-24
O=C(NCCN1CCCCC1)Nc1ccccc1,24890*,-18,4.3,9,8,5,11
Cc1ccc(OCC(=O)NN=Cc2cccnc2)cc1,.,.,-0.2,12,-2,-1,.
CCCCc1ccc(NC(=O)N[C@@H](CC(C)C)C(=O)O)cc1,4507,-16,4.6,13,7,3,-17
CCN(CC)c1ccc(/C=C2\SC(=O)N(C(C)C)C2=O)o1,9477,.,1.5,12,17,-5,39
COc1ccccc1NC(=O)c1cc2cc(Br)ccc2oc1=N,3429,-21,6.9,-7,3,-11,-4
CCN(CC)S(=O)(=O)c1cccc(NC(=O)c2cc(=O)[nH]c3ccccc23)c1,2143,-10,2.3,4,-1,3,-21
CC1=CC(C)(C)Nc2ccc(OC(=O)CN3C(=O)C4CCCCC4C3=O)cc21 (configuration not stated),3968,-9,10.0,6,9,8,-2
Cc1ccc(-c2cnn3c(N4CCOCC4)cc(C)nc23)cc1,3116,23,-0.9,12,0,39,-1
COc1ccc(C(CNC(=O)c2oc3ccc(F)cc3c2C)N2CCCCC2)cc1 (configuration not stated),5975,-15,.,.,.,.,0
CC12CCC(C(=O)NCc3ccccc3)(OC1=O)C2(C)C (configuration not stated),2359,-17,3.5,.,.,12,1
CCC(Br)C(=O)Nc1ccc(OC)cc1 (configuration not stated),2505,-8,3.5,15,0,8,-1
C#CCOCCOCCOCCNc1nc(N2CCOCC2)nc(N2CCN(C(=O)[C@H](CCCCN)n3cc([C@@H](N)CC(C)C)nn3)CC2)n1,3093,-11,.,.,.,.,4
CCc1nc(SCC(=O)N2CCc3ccccc32)c2oc3ccccc3c2n1,4070,-9,6.0,6,19,-5,.
O=C(O)CCN=C1CCCc2ccccc2N1,3294,-14,3.9,16,11,7,4
CCOc1ccc2nc(N(CCN(CC)CC)C(=O)c3cccc([N+](=O)[O-])c3)sc2c1,4664,-5,5.2,8,7,17,-1
O=C(NC1CCCC1)c1cccc(S(=O)(=O)N2CCOCC2)c1,6333,-15,3.0,1,2,3,.
Cc1ccc(S(=O)(=O)Nc2cccc(C(=O)NCCN3CCOCC3)c2)cc1F,2926,-1,6.7,10,2,14,.
COc1ccc(C(=O)COC(=O)c2ccc(OC)c(OC)c2)cc1OC,3716,3,-3.3,.,.,-1,11
Cn1cc([N+](=O)[O-])c(C(=O)N/N=C/c2ccncc2)n1,6174,-12,.,.,.,.,10
CCN(CC)S(=O)(=O)c1ccc(S(=O)(=O)Nc2c(C)nn(C)c2C)cc1,5009,-22,0.0,-2,-4,3,16
Cc1ccc(-c2nnc(N3CCC(C)CC3)c3ccccc23)cc1,4552,-20,-1.6,10,18,-9,3
Cc1ccc2c(c1C)NC(=O)C2(O)CC(=O)c1ccc2c(c1)OCO2 (configuration not stated),16395*,-9,0.2,-7,-10,2,-5
CC(C)(Oc1ccc(CCNC(=O)c2ccc(-c3ccccc3)o2)cc1)C(=O)O,10290,-26,-5.0,-1,-6,-8,11
O=C(/C=C/Nc1ccc(F)cc1)c1cccs1,2515,-76,.,.,.,.,-2
Cc1nnc(SCc2ccccc2Cl)n1CC1CCCO1 (configuration not stated),4011,-8,-0.3,5,9,-1,2
Cc1ccc(S(=O)(=O)NCC(=O)NC2CC2)cc1,5631,-8,2.2,3,2,-1,2
CCOC(=O)N(Cc1ccccc1)C1CC1,3656,-18,1.8,5,-2,-3,.
O=C(c1cccc(F)c1)N1CCN(Cc2c[nH]c3ccccc23)CC1,3635,-23,4.6,.,.,6,5
CCC(c1nnc(SCC(=O)Nc2cccc(S(N)(=O)=O)c2)n1Cc1ccccc1)N(C)C (configuration not stated),4628,-10,0.9,11,4,9,0
Cc1oc(-c2cc(F)ccc2F)nc1CN(C)Cc1ccc2nccnc2c1,4151,-15,6.0,-1,-1,12,-6
Nc1nc(-c2ccccc2)nc2sc3c(c12)CCCC3,2136,-18,-8.2,0,-9,4,4
Cc1nn(Cc2ccc(C(=O)Nc3ccccc3F)cc2)c(C)c1Cl,2204,-15,4.5,1,-3,8,2
Cc1ccc(CN(C)C(=O)c2cc(COc3cccc(C(F)(F)F)c3)on2)o1,4376,-5,5.5,6,-5,5,-6
Cc1c(/C(O)=C2/C(=O)C(=O)N(CCN3CCOCC3)C2c2cccnc2)cnn1-c1ccccc1 (configuration not stated),2081,-29,-0.4,.,.,3,1
O=C(OC1C(Cc2ccccc2)NS(=O)(=O)C2CC3C=C[C@]12O3)c1ccc([N+](=O)[O-])cc1 (some centres not stated),.,.,7.0,-1,1,2,.
COC(=O)C1CSC(C(=O)OC)N1C(=O)CN1CC(C)OC(C)C1 (configuration not stated),11195,-21,-3.8,1,-14,0,-2
O=C(NC(=S)NCCC1=CCCCC1)c1ccccc1Br,4094,-32,.,.,.,.,-3
COC(=O)c1cn(-c2cccc(C)n2)cn1,3211,-13,1.5,6,8,-7,-18
Cc1csc(Sc2ccc([N+](=O)[O-])cc2C(=O)OCC(=O)NC(=O)NC(C)(C)C)n1,5044,-7,-2.8,.,.,-2,0
CCOC(=O)C1=C2NC(=O)c3ccccc3N2C(=O)C1,4418,-30,5.7,-4,6,9,-2
O=C(NCCC1CCCCN1S(=O)(=O)c1cccs1)C(=O)Nc1cccc(F)c1 (configuration not stated),6199,-18,.,.,.,.,1
O=c1[nH]c(=S)n(Cc2ccc(F)cc2)c(O)c1/C=N/N1CCCCCC1,2538,-20,2.6,18,3,5,-3
Cn1c(N)c(C(=O)c2cc(-c3ccncc3)nc3ccccc23)c(=O)n(C)c1=O,3377,-14,2.0,11,-2,2,-10
CCOC(=O)c1c(C)n(C)c2ccc(OC)c(NC(=O)CN3CCN(Cc4ccccc4)CC3)c12,8883,-8,5.5,10,3,3,1
COc1ccc(C2=Nn3c(nnc3-c3ccncc3)SC2)cc1,?,5,5.0,4,9,-11,13
O=C(O)CCc1nnc(SCC(=O)Nc2ccc(Br)cc2)[nH]c1=O,4419,-35,6.2,4,-5,7,-1
CC(=O)c1cc(-c2ccccc2)n(CC(=O)Nc2cc(C)cc(C)c2)c1C,1932,-17,10,.,.,-2,-11
COC(=O)CSc1nnc(CNC(=O)c2cccs2)n1-c1cc(OC)ccc1OC,11006,-25,-0.1,4,3,2,.

# Look-ups from the results shown:
# O=C(NCCC1CCCCN1S(=O)(=O)c1cccs1)C(=O)Nc1cccc(F)c1 (configuration not stated) in Bead autofluor reads 6199
# COc1ccc(C2=Nn3c(nnc3-c3ccncc3)SC2)cc1 in BJeLR lethal reads 13
# O=c1[nH]c(=S)n(Cc2ccc(F)cc2)c(O)c1/C=N/N1CCCCCC1 in ugtP null kill reads 5

# (continued)
SMILES,Bead autofluor,PrP 5UTR inh,RN4220 kill,Mtb hypoxia inh,Mtb hypoxia inh growth,ugtP null kill,BJeLR lethal
O=C1NC(=O)C(=Cc2ccc(SC3CCCCC3)o2)C(=O)N1,2663,-3,2.8,14,0,7,-4
COCCn1c(SCc2ccc(OC)c(F)c2)nnc1-c1ccncc1,4318,-25,2.8,-2,-10,4,-8
COc1ccc(C=NNc2nc(C)nc(N)n2)cc1,.,.,-0.1,12,3,3,.
O=C(O)Cc1ccc(C(=O)c2ccc(Cl)cc2Cl)s1,2305,-12,7.3,6,11,10,7
Cc1nc(-c2ccc(Cl)cc2)sc1C1(C)CC(c2cccc(F)c2)=NO1 (configuration not stated),4055,-13,2.9,5,11,-17,-2
Cc1ccccc1OCC(=O)Nc1cccc2nsnc12,2946,-39,-3.3,6,0,-22,-1
Cc1cccc(C(=O)OC(C)C(=O)Nc2ccc(S(=O)(=O)Nc3ncccn3)cc2)c1C (configuration not stated),3856,-15,-0.2,4,2,1,.
Cc1ccc(C)c(NS(=O)(=O)c2ccc3[nH]c(=O)oc3c2)c1,2583,-4,-0.5,-5,3,0,4
COc1cc(C=NNC(=O)c2ccncc2)cc(OC)c1OC,.,.,-0.6,14,12,16,.
O=C(NNC(=S)Nc1ccccc1)c1ccccc1[N+](=O)[O-],3648,-13,3.6,8,-2,12,3
Cc1ccc(NC(=O)COC(=O)CN2C(=O)NC3(CCCC3)C2=O)cc1F,6986,6,4.9,1,-2,4,.
COc1ccc(CCNC(=O)C2CCCN2C(=O)NC2CCCCC2)cc1OC (configuration not stated),4119,-15,-0.8,4,2,2,1

# Rewritten with two lines to a compound: entries from further up.
# Order of results: Bead autofluor	PrP 5UTR inh	RN4220 kill	Mtb hypoxia inh	Mtb hypoxia inh growth	ugtP null kill	BJeLR lethal
O=C(O)Cc1ccc(C(=O)c2ccc(Cl)cc2Cl)s1
 : 2305	-12	7.3	6	11	10	7
Cc1nc(-c2ccc(Cl)cc2)sc1C1(C)CC(c2cccc(F)c2)=NO1 (configuration not stated)
 : 4055	-13	2.9	5	11	-17	-2
Cc1ccccc1OCC(=O)Nc1cccc2nsnc12
 : 2946	-39	-3.3	6	0	-22	-1

# The listing continues.
SMILES,Bead autofluor,PrP 5UTR inh,RN4220 kill,Mtb hypoxia inh,Mtb hypoxia inh growth,ugtP null kill,BJeLR lethal
O=C(Nc1ccccc1)N1CCC(=S)Nc2ccccc21,2507,-25,7.5,12,0,3,10
COCCCNS(=O)(=O)c1ccc2c(c1)CCN2C(C)=O,4570,-4,0.7,.,.,5,11
O=C(CSc1nc2c(c(=O)[nH]1)CCCC2)Nc1ccc(Cl)cc1F,20550*,-17,19,4,9,-8,-5
COC(=O)C(=O)/C=C(\O)c1c(C)cc(C)cc1C,6057,-4,7.7,13,5,-2,5
Brc1ccc(N=NNc2ccccc2)cc1,2920,-57,.,.,.,.,-4
Cc1ccc(-c2nnc(Nc3ccc4c(c3)nc(C)n4C)c3ccccc23)cc1,5115,-34,-2.3,14,15,15,3
CCCNC(=O)c1ccc(N2CCC3(CC2)CC(c2ccccc2)=NO3)c(NC(=O)Cc2ccc(F)cc2)c1,3795,-3,-0.6,5,12,-24,10
CCOC(=O)c1c(Cc2cccc(Cl)c2)c[nH]c1C,2064,12,8.9,8,6,-8,1
CCCCC(=O)Nc1ccc(C(=O)N2CCN(c3ccccc3OC)CC2)cc1,8898,-22,2.4,1,6,1,9
S=C(NCc1ccncc1)Nc1ccccc1,2468,-13,-0.6,-7,8,1,7
CC(=O)Nc1ccc(NC(=O)C(NS(=O)(=O)c2ccc3c(c2)OCCO3)C(C)C)cc1 (configuration not stated),3513,-22,5.0,11,5,5,.
Nc1c(C(=O)O)sc2nc(-c3ccccc3)cc(-c3ccc(Cl)cc3)c12,4392,-19,61,-2,-5,70,4
CCn1c(=O)[nH]c2cc(Cl)c(Cl)cc21,6258,10,1.8,2,-6,-7,.
Cn1c(O)c(C=NC2CC3CCC2(C)C3(C)C)c(=O)[nH]c1=O (configuration not stated),4976,-9,-0.9,.,.,-7,.
CCOC(=O)C1CCN(C(c2ccc(OC)c(OC)c2)c2sc3nc(C)nn3c2O)CC1 (configuration not stated),6373,12,10,-5,7,4,-1
